# StopGo RLuc: Primary qHTS Assay for Foot and Mouth Disease Virus Antivirals against NCGC Sytravon and CBC Compound Libraries: Renilla Luciferase Signal | AID 1745857, 2022 | 120,000 tested, 0.32% active | HEK cells with a luciferase reporter of 2A StopGo recoding | Potency, µM (doses to about 57.5 µM), for inactives: top-dose signal change, negative = less light; active means well fitted falling curve with a large enough effect; inconclusive means small, poorly fitted or top-dose-only effect; inactive means no such curve, though single readings can be large or run the other way; further: nearly all actives have a fitted effect of over 55% in size; overnight with compound
# StopGo FLuc: Primary qHTS Assay for Foot and Mouth Disease Virus Antivirals against NCGC Sytravon and CBC Compound Libraries: Firefly Luciferase Signal | HEK cells with a luciferase reporter of 2A StopGo recoding | Potency, µM (top dose mostly 57.5 µM), inactives show at the highest dose signal change, negative = less light | 120,000 tested, 0.23% active | AID 1745856, 2022; active = well fitted falling curve with a large enough effect; inconclusive = small, poorly fitted or top-dose-only effect; inactive = no such curve, though single readings can be large or run the other way; further: nearly all actives have a fitted effect of over 60% in size; overnight with compound
# The depositor's hits bear a star; ? = inconclusive; & = joins results of further samples; [ ] = another dose, or the depositor's remark. On the % scale 0 is the no-effect control and ±100 the full control effect; potency means the concentration at half of the fitted maximal effect.
SMILES,StopGo RLuc,StopGo FLuc
CCOc1ccccc1C(=O)N(Cc1cc(OC)c(OC)c(OC)c1)C1CCS(=O)(=O)C1 (stereo not given),-5%,-4%
O=C(NCCNC(=O)c1cc2ccccc2[nH]1)C(=O)NC1CCCCCC1,10%,115%[activator]
CCOc1ccccc1NC(=O)CSc1nc2c(oc3ccccc32)c(=O)n1-c1ccc(C)c(C)c1,-10%,-16%
O=C(Nc1ccccc1C(=O)OCc1cc(=O)n2ccsc2n1)c1ccc(Cl)cc1,-5%,-13%
CN(C)c1ccc(C(=O)Nc2cnc3ccccc3c2)cc1,0%,-53%
Cc1nn(Cc2ccccc2)c(C)c1CNS(=O)(=O)c1cccc(C#N)c1,15%,9%
O=C(CCc1ncc(-c2ccccc2F)o1)N1CCN(S(=O)(=O)c2ccc(F)c(Cl)c2)CC1,-19%,-22%
CCN(C(=O)CSC1CCCC1)C1CCCCC1,7%,10%
CCc1ccc(NC(=O)N(Cc2c[nH]c3ccccc23)C2CCCCCC2)cc1,-5%,19%
c1ccc(COc2ccc(CNc3ccc(Oc4ccccc4)cc3)cc2)cc1,0%,0%
Cc1ccc(C(=O)NCC(c2ccco2)S(=O)(=O)c2ccc(Cl)cc2)cc1C (stereo not given),43%[activator],-25%
COc1ccc(CNC(=O)Cc2ccc(NC(=O)N3CCSc4ncccc43)cc2)cc1,-13%,20%
Cc1c(C(=O)CN2CCCCC2)c2ccccc2n1C,-29%,0%
O=C(CSc1nc2cc(Cl)ccc2o1)NCc1ccco1,-5%,24%
CC(=O)N1c2ccc(S(=O)(=O)NCCC(=O)N(C)Cc3ccccc3)cc2CC1C (stereo not given),98%[activator],-5%
COc1cccc(C(=O)NCC(=O)OCc2cc(=O)n3ccsc3n2)c1,-12%,0%
Cc1cc(C)cc(NC(=O)c2cnn(-c3ccc(C)c(C)c3)c2C2CCNCC2)c1,6%,-11%
S=c1[nH]c2ccccc2c2ccccc12,19%,18%
CCOC(=O)OC(C)OC1=C(C(=O)Nc2ccccn2)N(C)S(=O)(=O)c2ccccc21 (stereo not given),6%,5%[11.5 µM]
CCCC(=O)N1CCN(c2nc(-c3ccco3)c3c(c2C#N)CCCC3)CC1,-8%,-21%
CCOC(=O)CN1C(=O)c2ccccc2Sc2ncccc21,21%,8%
CSc1ccccc1NC(=O)c1ccc(F)cc1F,13%,108%[activator]
CC(=O)c1ccc(N2CCN(CCS(=O)(=O)c3ccc(Br)cc3)CC2)cc1,-17%,-8%
O=C(CCC1CCCCC1)NCCc1cccnc1,4%,54%[activator]
Cc1ccc(NC(=O)COc2ccc(/C=C(/C#N)C(=O)N3CCOCC3)cc2)cc1,2%,69%[activator]
CCN(CC(=O)NC(C)C)C(=O)c1cc(C(C)C)nc2ccccc12,0%,8%
O=C(NCCS(=O)(=O)N1CCN(c2ccc(F)cc2)CC1)C1CC(=O)N(c2ccc(F)cc2)C1 (stereo not given),-4%,-18%
Cc1cccc(N(C)S(=O)(=O)c2cc(-c3cc(C)no3)ccc2C(C)C)c1,23%,?
COc1ccc(CNC(=O)Nc2ccc3c(c2)N(C)C(=O)c2ccccc2S3)cc1,?,-1%
COC(=O)C1=C(C)N(C)C(C)=C(C(=O)OC)C1c1cccc(C(F)(F)F)c1,1%,39%[activator]
O=C(Nc1ccc2oc(-c3cccc4ccccc34)nc2c1)c1ccc2c(c1)OCCO2,-25%,-23%
Cc1ccc(CNC(=O)c2cccc(N3CCCS3(=O)=O)c2)cc1,?,?
O=C(Cn1nc(C(=O)O)c2ccccc2c1=O)NCc1ccc(Cl)cc1,29%,42%[activator]
COC(=O)c1ccc(C2Nc3c(C)cc(C)cc3C3C=CCC32)cc1 (stereo not given),-14%,-24%
C=C(C)Cn1c(N2CCN(Cc3cccc(Cl)c3)CC2)nc2c1c(=O)[nH]c(=O)n2C,-1%,8%
COc1ccc2nc(SCC(=O)Nc3nccs3)[nH]c2c1,17%,114%[activator]
O=C(Nc1cccc2cccnc12)NC12CC3CC(CC(C3)C1)C2,3%,42%[activator]
Cc1ccc(C)c(NC(=O)Cn2cc(C(=O)c3ccncc3)c(=O)c3cc(F)ccc32)c1,-16%,-24%
CC1COCCN1C(=O)Cc1nn(C)c(=O)c2ccccc12 (stereo not given),-12%,-11%
CCOC(=O)c1c(-c2ccc(OC)c(OC)c2)csc1NC(C)=O,19%,12%

# Among those listed so far, these have fluorine:
SMILES,StopGo RLuc,StopGo FLuc
O=C(CCc1ncc(-c2ccccc2F)o1)N1CCN(S(=O)(=O)c2ccc(F)c(Cl)c2)CC1,-19%,-22%
CSc1ccccc1NC(=O)c1ccc(F)cc1F,13%,108%[activator]
O=C(NCCS(=O)(=O)N1CCN(c2ccc(F)cc2)CC1)C1CC(=O)N(c2ccc(F)cc2)C1 (stereo not given),-4%,-18%
COC(=O)C1=C(C)N(C)C(C)=C(C(=O)OC)C1c1cccc(C(F)(F)F)c1,1%,39%[activator]
Cc1ccc(C)c(NC(=O)Cn2cc(C(=O)c3ccncc3)c(=O)c3cc(F)ccc32)c1,-16%,-24%

# (cont.)
SMILES,StopGo RLuc,StopGo FLuc
COc1ccc(Cl)cc1NC(=O)N(C)CCc1noc(C(=O)NCc2ccccc2)n1,0%,6%
CCCCCCNCCN1CCOCC1,-3%,18%
Cc1cccc(OCCOC(=O)Cn2cnc3c2c(=O)n(C)c(=O)n3C)c1,-1%,13%
COc1cc(-c2noc(-c3nnn(-c4ccc(Cl)cc4)c3C)n2)cc(OC)c1OC,-7%,15%
Cn1cccc1C1CCCN1Cc1nc(-c2ccc(Cl)cc2)no1 (stereo not given),-9%,0%
Cc1ccccc1OCc1nnc(SCc2cc(=O)c3ccc(C)c(C)c3[nH]2)n1C,-2%,-16%
COc1ccc(NC(=O)COc2coc(CN3CCSCC3)cc2=O)cc1OC,-17%,-12%
Cc1ccccc1-c1nnc(C2CCN(S(=O)(=O)c3ccc(Cl)cc3)CC2)o1,-8%,-4%
CCc1ccc(CNC(=O)Cn2nc(-c3ccc(Cl)cc3)ccc2=O)cc1,1%,52%[activator]
COc1ccc(-c2csc(NC(=O)Cc3nc4nc(C)cc(C)n4n3)n2)cc1Cl,3%,14%

# Full records, looked up by structure:
# Shown for O=C(Nc1ccccc1C(=O)OCc1cc(=O)n2ccsc2n1)c1ccc(Cl)cc1 = StopGo RLuc = -5%; StopGo FLuc = -13%
# Shown for Cc1ccccc1OCc1nnc(SCc2cc(=O)c3ccc(C)c(C)c3[nH]2)n1C = StopGo RLuc = -2%; StopGo FLuc = -16%

# (further entries)
SMILES,StopGo RLuc,StopGo FLuc
CCN(CC)C(=O)Cn1c(=O)c2c(ncn2Cc2ccco2)n(Cc2ccccc2)c1=O,-1%,2%
Cc1cc(C)n(-c2ccc(C(=O)OCC(=O)NC3CCC(C)CC3)cc2)n1 (stereo not given),-5%,0%
COc1ccc(NC(=O)Cn2nc(Cc3cccnc3)c3ccccc3c2=O)cc1OC,-3%,3%
COc1cc2c(-c3ccccc3C)nc3c(c(C)nn3-c3ccccc3)c2cc1OC,4%,-12%
COc1ccc(C)cc1CCNC(=O)c1ccc(NC(=O)CC2SC(N3CCCC3)=NC2=O)cc1 (stereo not given),9%,10%
CC(=O)c1cccc(NC(=O)Cn2c(=O)oc3cc(S(=O)(=O)N4CCCC4)ccc32)c1,-1%,4%
O=C(NCCO)c1nc(-c2ccc(COc3ccc4c(c3)OCO4)cc2)no1,-7%,128%[activator]
CC(C)OC(=O)c1ccc(NC(=O)CSc2cn[nH]c(=O)n2)cc1,-8%,54%[activator]
CC(=O)N1CCN(C(=O)CCC(=O)N2CCC(c3noc4cc(F)ccc34)CC2)CC1,2%,5%
Cc1nn(CC(=O)Nc2cccc(C(F)(F)F)c2)c(=O)c2nn(-c3ccccc3)c(C)c12,0%,-13%
Fc1ccccc1N1CCN(c2ncnc3nc[nH]c23)CC1,-15%,0%
O=C(/C=C/c1ccc(F)cc1)c1cc2ccccc2oc1=O,12%,67%[activator]
CN(CC(=O)Nc1ccc(Cl)cc1)Cc1nc2cc(Cl)ccc2c(=O)[nH]1,26%,15%
CN(Cc1ccccc1)Cc1nc2c([nH]1)c(=O)[nH]c(=O)n2C,6%,229%[activator]
O=C(O)Cc1c[nH]c2ccccc12,-15%,6%
CCOc1ccccc1CNCCNC(=O)c1nonc1N,-5%,-12%
CCN(CC)S(=O)(=O)c1cc(NC(=O)c2n[nH]c3ccccc23)ccc1C,?,-27%
COc1ccc(-c2noc(CSc3nc4ccccc4[nH]3)n2)cc1OC,?,?
CCC(C)c1ccc(OCC(=O)Nc2cccc3ccc(C)nc23)cc1 (stereo not given),0%&-7%,29%&-10%
Fc1ccc(COc2cccc(CNCC3CCNCC3)c2)cc1,32µM*,?
Cc1cc(C)cc(-n2c(C)cc(C(=O)C(=O)Nc3nnc(C)s3)c2C)c1,-3%,-6%
CCOc1ccc(C(=O)NCC(=O)O)cc1OCC,6%,8%
O=C(CCS(=O)(=O)c1nc(-c2ccc3c(c2)OCO3)cc(C(F)(F)F)n1)Nc1ccccc1C(F)(F)F,0%,-27%
CSc1ccc(NC(=O)c2ccc(F)c(F)c2)cc1,-5%[1.06 µM],219%[activator]
Cc1nc(-c2ccncc2)[nH]c(=O)c1CC(=O)N(C)C1CCCCC1,-3%,-1%
Cc1cccc(CSCc2ccc(-c3nc(-c4ccc(Br)cc4)no3)o2)c1,?,-25%
O=C(O)CCN1CCN(CCC(=O)O)CC1,0%,-4%
O=C(/C=C\c1ccccc1)NC1CC(=O)N(c2ccccc2)C1 (stereo not given),-12%,33%
N#Cc1ccc(C(=O)Nc2ccc3c4c(cccc24)CC3)c(F)c1,-9%,5%
Cc1c(/C=C(\C#N)C(=O)Nc2cccc(Cl)c2)c2ccccc2n1Cc1ccccc1,-6%,-11%

# Molecules shown so far that contain a COOH group, in the order listed:
SMILES,StopGo RLuc,StopGo FLuc
O=C(Cn1nc(C(=O)O)c2ccccc2c1=O)NCc1ccc(Cl)cc1,29%,42%[activator]
O=C(O)Cc1c[nH]c2ccccc12,-15%,6%
CCOc1ccc(C(=O)NCC(=O)O)cc1OCC,6%,8%
O=C(O)CCN1CCN(CCC(=O)O)CC1,0%,-4%

# Further structures follow:
SMILES,StopGo RLuc,StopGo FLuc
CCOc1cc(Cl)c(S(=O)(=O)n2cc(C)nc2CC)cc1Cl,-7%,?
O=C(CCC1N=C2c3ccccc3N=C(SCc3cccc(Cl)c3)N2C1=O)NCCc1ccccc1 (stereo not given),-7%,-13%
COc1cc2nc(NCc3ccccc3)n3nc(-c4ccccc4)nc3c2cc1OC,-8%,-2%
COC(=O)c1ccc2c(c1)N(Cc1ccccc1)C(=O)c1ccccc1S2(=O)=O,5%,?
Cn1c(NCCO)nc2c1c(=O)n(Cc1cccc(F)c1)c(=O)n2C,-10%,-20%
COc1ccc(NC(=O)C(Cc2ccccc2)NS(=O)(=O)c2ccc(Br)s2)cc1OC (stereo not given),67%[activator],-23%
CNC(=O)CN1CCCC1c1ccsc1 (stereo not given),8%,21%
COc1ccc(NC(=O)C2CCCN(S(=O)(=O)c3c(C)n[nH]c3C)C2)cc1OC (stereo not given),15%,23%
Cc1ccc(CNc2nc(NCc3ccc(C)cc3)n(C(=O)c3ccncc3)n2)cc1,2%,-5%
CCCCNC(=O)c1cc(-c2ccc(OC)cc2OC)nc2ccccc12,18%,4%
CCCCCCCCCCCOc1ccc(C(=O)O)cc1,13%,45%[activator]
CNC(=O)c1cccc(NC(=O)Cc2c[nH]c3ccccc23)c1,11%,0%
CCCOc1ccc(-c2[nH]nc3c2C(c2cc(OC)c(OC)c(OC)c2)C(C#N)=C(N)O3)cc1 (stereo not given),-8%,24%
COC(=O)c1ccc(-n2c(/C=C\c3cccc(Br)c3)nc3ccccc3c2=O)cc1,15%,79%[activator]
CC(Sc1nnc2c(Cl)cc(C(F)(F)F)cn12)C(=O)c1ccccc1 (stereo not given),-4%,5%
CCC(C(=O)c1ccccc1)n1c(N2CCOCC2)nc2c1c(=O)n(C)c(=O)n2C (stereo not given),11%,22%
Cc1ccc(-n2nnnc2SCc2nc3ccsc3c(=O)[nH]2)cc1C,-7%,-3%
N#C/C(=C\c1ccc(O)cc1)C(=O)NCC1CCCO1 (stereo not given),4%,74%[activator]
Cc1ccccc1C(=O)Nc1cccc(C(=O)OCc2cc(=O)n3c(C)csc3n2)c1,4%,-28%
CCNc1nc(N)c(C(=O)c2ccc(Cl)cc2)s1,17%,210%[activator]
COc1cc(CC(=O)N2CCN(C(=O)c3cccc4ccccc34)CC2)cc(OC)c1OC,-3%,-7%
CN1CCN(CCOc2ccc3cc(-c4ccccc4)c(=O)oc3c2)CC1,-6%,179%[activator]
O=C(COc1ccccc1Cl)NC1CCCN(c2ncccn2)C1 (stereo not given),19%,167%[activator]
N#Cc1nc(-c2ccco2)oc1N1CCN(CC(=O)N2CCNC2=O)CC1,-3%,-3%
COc1cccc(/C=C(/CC(=O)O)c2nc3ccccc3o2)c1,3%,91%[activator]
COc1ccc(NC(=O)c2cnn(-c3ccc(C)c(C)c3)c2C2CCNCC2)cc1OC,17%,-23%
Cc1[nH]nc2ncc(C=O)cc12,6%,0%
COc1ccc(-c2nnc(SCC(=O)NC3CCCCC3)nc2-c2ccc(OC)cc2)cc1,33%[activator],30%
CCc1ccc(C(=O)c2cn(CC(=O)Nc3ccc(F)cc3)c3ccc(F)cc3c2=O)cc1,24%,-16%
CCN(CCN(C)C)C(=O)Cn1ncc2c([nH]c3ccc(C)cc32)c1=O,-12%,-18%
COc1ccc(NC(=O)c2sc3nc4c(cc3c2N)N2CCC4CC2)cc1OC,?,23%
CCn1cc(SCC(=O)Nc2cc(C)ccc2C)c2ccccc21,50%[activator],0%
O=C(NCc1ccccc1Cl)c1cccn1-c1nnc(N2CCCCC2)s1,0%,15%
O=C(Nc1cccc(C(F)(F)F)c1)Nc1nnc(N2CCCCC2)s1,-12%,-8%

# These rows are one share of the data (hit frequency here may not be typical).
